Screens from PubChem.
Insulin prom inh = inhibitors of insulin promoter-driven GFP, primary screen, imaging, TRM-6 cells (human fetal islet line), eGFP reporter, cell count; reporter expression induced with tamoxifen; inhibition, % at 2 µM; 130,000 tested, 0.9% active;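 active means inhibition above the mean plus 3 SD, with well images judged a real hit on visual review, cut at about 60% in these data, passing the limit was not always enough; inconclusive means inhibition over the cutoff but images rejected on review; inactive means inhibition not above the cutoff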
HSV replic up = enhancers of HSV replication in host cells, fold increase, host cell viability; HSV replication augmentation in cells; maximum fold increase; 220,000 tested, 0.005% active; AID 1956, 2009;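 active means peak rise of 1.5-fold or more in the series; inconclusive means self-fluorescent or not available for retest; tested in PC3 cells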;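 further: first round at 10 µM; read as green reporter fluorescence; hits show the peak of a series up to 25 µM; 1 = signal of infected wells without compound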
RGS16-Gao = modulators of RGS16 binding to Galphao, primary screen, biochemical, human proteins, multiplexed bead flow cytometry; bead-based flow cytometry RGS16-Galphao binding, fluorescence; actives lie on both sides; binding response (% of control), % at 10 µM; 220,000 tested, 0.38% active; AID 1441, 2008;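 active means below 25% or above 175%, edge rows of some plates excepted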;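 further: Galphao activated by GDP with aluminum fluoride before binding; 100% = wells without compound and 0% = beads without RGS; some results beyond the cut were filed as inactive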
Target sequence (O15492 whole entry, looked up): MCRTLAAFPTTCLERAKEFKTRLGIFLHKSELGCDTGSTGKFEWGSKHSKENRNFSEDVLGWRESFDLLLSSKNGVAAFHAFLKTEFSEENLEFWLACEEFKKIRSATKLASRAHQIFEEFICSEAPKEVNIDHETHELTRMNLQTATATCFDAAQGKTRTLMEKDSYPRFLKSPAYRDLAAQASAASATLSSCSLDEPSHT
Target sequence (P09471 whole entry, looked up): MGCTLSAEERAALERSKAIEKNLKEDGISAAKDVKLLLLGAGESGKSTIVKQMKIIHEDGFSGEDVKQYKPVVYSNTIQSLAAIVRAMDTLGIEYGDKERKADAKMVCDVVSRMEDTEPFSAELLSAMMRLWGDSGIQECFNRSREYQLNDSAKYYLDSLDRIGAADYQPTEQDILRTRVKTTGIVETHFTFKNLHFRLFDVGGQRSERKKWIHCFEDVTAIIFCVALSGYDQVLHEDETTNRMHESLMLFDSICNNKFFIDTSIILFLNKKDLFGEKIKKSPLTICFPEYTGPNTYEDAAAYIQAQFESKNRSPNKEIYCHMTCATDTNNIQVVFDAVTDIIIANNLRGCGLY
PKD1 kinase inh = inhibitors of human PKD1 kinase, biochemical, fluorescence polarization. PKD1 kinase fluorescence polarization assay. inhibition, %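 (about 10 µM by stock and volumes)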. 200,000 tested, 0.056% active. AID 797, 2007;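 active means inhibition of 50% or more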;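 further: controls were vehicle for no effect and a reference inhibitor for full effect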
GALR2 ag = GALR2 receptor agonists, primary screen, cell-based; GALR2-expressing cells, agonist activation read-out; activation, %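 (tested at 5 µM)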; 140,000 tested, 0.48% active; AID 803, 2007;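 active means above mean plus 3 SD of all compounds, about 5% in these data, not always enough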;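 further: 0% = vehicle buffer wells and 100% = reference agonist at full effect; tested in CHO reporter cells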
Target sequence (O43603 whole entry, looked up): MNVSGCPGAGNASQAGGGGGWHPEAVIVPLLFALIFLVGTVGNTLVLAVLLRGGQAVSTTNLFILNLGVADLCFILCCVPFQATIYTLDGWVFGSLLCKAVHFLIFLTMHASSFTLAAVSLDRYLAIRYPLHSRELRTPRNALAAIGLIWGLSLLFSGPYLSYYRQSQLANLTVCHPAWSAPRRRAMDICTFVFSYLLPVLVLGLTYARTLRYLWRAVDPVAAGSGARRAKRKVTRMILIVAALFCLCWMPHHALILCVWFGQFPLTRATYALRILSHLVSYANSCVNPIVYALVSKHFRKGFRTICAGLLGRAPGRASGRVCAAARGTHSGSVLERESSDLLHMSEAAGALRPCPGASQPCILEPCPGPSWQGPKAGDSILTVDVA
Insulin prom inh cell count = further read-out of Insulin prom inh, marked with its call; normalized cell count, %; measured here: cell count, toxicity; reference of the scale not given here;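 cells exposed to compound for 48 h; stained nuclei by imaging scaled within each plate; lower means fewer cells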
HSV replic up primary fold = second read-out of HSV replic up, no call of its own (marks repeat the call); fold increase; compound at 10 µM; measured here: primary screen fold increase 10 uM; tested in PC3 cells;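 GFP signal in the first replicate; 1 = infected wells without compound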
Numbers without * were called inactive; i = inactive; ? = inconclusive; nt = not tested or not shown.

SMILES | Insulin prom inh | Insulin prom inh cell count | HSV replic up | HSV replic up primary fold | RGS16-Gao | PKD1 kinase inh | GALR2 ag
CCN(CC)CC(=O)NN(Cc1ccccc1)c1ccccc1 | nt | nt | i | 0.78 | 98.5 | nt | nt
Cc1ccc(NC(=O)CSCC(=O)NC2CCCCC2)cc1 | -231.0 | 126.2 | i | 1.06 | 101.3 | -4.6 | 0.2
O=C(O)Cn1cnc2ccccc2c1=O | 3.1 | 105.0 | i | 0.95 | 104.1 | 0.8 | -2.0
CCn1nc(C)c(NC(=O)/C=C/c2ccc(OC)c(COc3ccc(Cl)cc3Br)c2)c1C | 10.5 | 100.0 | nt | nt | 98.5 | -1.6 | -0.8
O=C(O)c1ccc(N2C(=O)C3ON(c4ccccc4)C(c4ccccc4F)C3C2=O)cc1 (configuration not stated) | nt | nt | i | 0.94 | 70.5 | 5.4 | -1.7
Cc1cccc(N2C(N)=NC(N)=NC23CCCCC3)c1 | -6.5 | 81.3 | nt | nt | 102.8 | -6.2 | -2.0
CCCCC(CCC(=O)Nc1ccc(C(=O)OC)cc1)C(=O)O (configuration not stated) | 36.1 | 73.8 | i | 0.89 | 101.3 | 6.0 | -2.1
O=C(Cn1nnc(-c2ccncc2)n1)NCCc1ccccc1 | 0.0 | 111.2 | i | 1.09 | 116.0 | 6.4 | -1.3
S=c1[nH]nc(C2CCCCC2)n1/N=C/c1cccs1 | 53.9 | 87.8 | nt | nt | 103.9 | -3.6 | -1.9
C=CCNC(=O)c1onc(CSc2ccccc2C)c1C(=O)O | 2.7 | 124.1 | i | 0.88 | 98.3 | -8.5 | -3.3
CCCCNC(=S)NNC(=O)c1nn(C)c(C)c1Cl | 47.6 | 136.9 | i | 0.96 | 88.1 | 2.5 | -2.5
O=S1(=O)C[C@@H]2N=C(N/N=C/c3ccccc3)S[C@@H]2C1 | nt | nt | i | 1.1 | 91.7 | nt | nt
Cc1ccc(N2C(=O)CN(Cc3cccs3)C2=S)cc1C | nt | nt | i | 1.15 | 96.0 | 1.2 | nt
CC1CCCCN1C(=O)Nc1cccc(C(F)(F)F)c1 (configuration not stated) | -42.9 | 65.5 | i | 1.05 | 105.0 | -5.3 | nt
CCOC(=O)c1c(C)[nH]c(C)c1C(=O)COC(=O)/C=C/c1ccc(Cl)cc1 | 18.8 | 97.2 | i | 0.89 | 99.4 | 12.2 | -0.6
Cc1ccc(-c2cc3nc(-c4ccccc4)cc(N4CCOCC4)n3n2)cc1 | -326.7 | 67.4 | i | 0.96 | 114.9 | -6.2 | -0.2
C=CCNc1ncnc2ccccc12 | 9.1 | 108.0 | i | 0.88 | nt | 2.6 | -1.0
COc1ccccc1NC(=S)N(Cc1cccs1)C1CCCC1 | -40.0 | 78.1 | i | 0.93 | 101.8 | -4.7 | nt
CCSc1nc2sc3c(c2c(=O)n1-c1ccc(OC)cc1)CCN(C)C3 | nt | nt | i | 1.06 | 96.4 | nt | nt
COC(=O)Cn1cc(C(=O)C2CC2)c2ccccc21 | 28.9 | 84.1 | i | 0.96 | 92.5 | -6.4 | -1.9

Laid out differently: entries from further up
Cc1ccc(N2C(=O)CN(Cc3cccs3)C2=S)cc1C
  Insulin prom inh: nt
  Insulin prom inh cell count: nt
  HSV replic up: i
  HSV replic up primary fold: 1.15
  RGS16-Gao: 96.0
  PKD1 kinase inh: 1.2
  GALR2 ag: nt

CCCCNC(=S)NNC(=O)c1nn(C)c(C)c1Cl
  Insulin prom inh: 47.6
  Insulin prom inh cell count: 136.9
  HSV replic up: i
  HSV replic up primary fold: 0.96
  RGS16-Gao: 88.1
  PKD1 kinase inh: 2.5
  GALR2 ag: -2.5

Next structures.
SMILES | Insulin prom inh | Insulin prom inh cell count | HSV replic up | HSV replic up primary fold | RGS16-Gao | PKD1 kinase inh | GALR2 ag
CCC(=O)OC1CC(C)N(C(=O)c2ccccc2)c2ccc(C)cc21 (configuration not stated) | -14.3 | 71.2 | i | 0.963 | 105.8 | -3.5 | -2.0
COC(=O)c1ccc2c(c1)C(=O)N(C1CCCCC1)C2=O | 50.0 | 128.3 | i | 0.88 | 100.3 | 2.8 | -2.7
COC(=O)CSc1nnc2cc(C)c3ccccc3n12 | nt | nt | i | 0.96 | 109.6 | nt | nt
CCOCCCNC(=O)C(Cc1ccccc1)NC(=O)c1ccco1 (configuration not stated) | -123.6 | 74.0 | i | 0.82 | 99.6 | -10.1 | -3.7
CCOc1ccc(NC(=O)C2CCC(CNc3c(N4CCOCC4)c(=O)c3=O)CC2)cc1 (configuration not stated) | nt | nt | i | 0.99 | 103.1 | 0.0 | -2.4
COc1ccc(N2CCN(C(=O)c3ccc(N4C(=O)NC5CC4(C)Oc4ccccc45)cc3)CC2)cc1 (configuration not stated) | nt | nt | i | 0.94 | 114.3 | 16.4 | -1.6
CC1=C(C(=O)N2CCCCC2)C(c2cccs2)NC(=O)N1 (configuration not stated) | -7.1 | 100.0 | i | 0.92 | 105.6 | 11.2 | -1.8
COCc1ccc(CN2CCCC(CO)(Cc3ccccc3)C2)o1 (configuration not stated) | -50.0 | 98.0 | i | 0.96 | 107.5 | 5.8 | nt
CC(Oc1ccccc1)c1ccnc2nc(N3CCOCC3)nn12 (configuration not stated) | nt | nt | i | 0.99 | 102.2 | -0.6 | nt
O=c1nc2ccccc2c2n1CC(CN1CCN(c3ccc(F)cc3)CC1)N2 (configuration not stated) | 17.9 | 83.6 | i | 0.99 | 107.3 | -4.9 | -0.5
CCCNC(=O)c1cccc(Br)c1 | -36.6 | 73.5 | i | 1.01 | 80.2 | -6.9 | nt
COc1cc(NC(=O)CSc2nnc3c(n2)[nH]c2ccc(S(=O)(=O)NC(C)C)cc23)cc(OC)c1OC | 30.0 | 116.0 | i | 0.9 | 102.3 | 5.1 | nt
CCCCCCCCCc1nc2sc3c(c2c(=O)n1NC(=O)c1ccc([N+](=O)[O-])cc1)CC(C)(C)OC3 | -9.1 | 77.6 | i | 0.95 | 97.7 | -4.9 | -1.9
O=C1N(Cc2cccnc2)C[C@@H]2C[C@@H](c3cccc(Oc4ccccc4)c3)N3CCC[C@@]123 | nt | nt | i | 0.82 | 79.0 | nt | nt
CN(C)CCCn1c(N)c(C#N)c2nc3ccccc3nc21 | nt | nt | ? | nt | 103.3 | nt | nt
COc1ccc(-c2n[nH]c(C)c2-c2ccc(Cl)cc2)c(O)c1 | 7.9 | 114.3 | i | 0.9 | 98.0 | -1.8 | 0.3
C=C(C)C1CC=C(C)/C(=N/NC(=O)COc2ccccc2Cl)C1 (configuration not stated) | -13.7 | 110.6 | i | 0.82 | 64.0 | -8.3 | -0.9
CN1CCN(c2nc(-c3ccccc3)nc(-c3ccc(F)cc3)c2C#N)CC1 | nt | nt | i | 0.86 | 96.2 | 2.7 | nt
Cc1ccc(N=Nc2c(O)[nH]c3ccc(F)cc23)cc1 | nt | nt | i | 1.11 | 102.4 | nt | nt
O=C(COC(=O)c1cccc(C(F)(F)F)c1)NCc1ccc(Cl)cc1 | 0.0 | 155.1 | i | 0.99 | 108.0 | -4.5 | -0.5
O=Cc1cnc(N2CCN(Cc3ccccc3)CC2)s1 | -5.9 | 119.1 | i | 1.23 | 102.1 | 1.9 | nt
CC(C)COc1nc2ccccc2c(=O)n1OCC(=O)O | -33.3 | 65.6 | nt | nt | 101.5 | -2.6 | -3.3
CCOC(=O)/C=C1\CC(=O)Nc2cc(C)c(C)cc2N1 | -57.1 | 104.9 | i | 1.06 | 76.6 | -2.2 | -1.5
c1cc(-c2ccncc2)ccn1 | -8.3 | 117.6 | nt | nt | 112.9 | 0.8 | 0.1
CN(CC(=O)NC1CCN(Cc2ccccc2)CC1)S(=O)(=O)c1ccc2c(c1)c(=O)n(C)c(=O)n2C | 31.2 | 88.2 | i | 0.8 | 100.4 | 1.5 | nt
O=C(O)COc1ccc(F)cc1Br | nt | nt | i | 1.14 | 124.3 | nt | nt
CCC(C)[C@H](NC(=O)NCc1cccs1)C(=O)OC (some centres not stated) | 38.5 | 106.2 | i | 0.85 | 100.7 | 11.7 | 0.1
CCOC(=O)C1CCN(C(=O)COc2ccc(Br)cc2C)CC1 | nt | nt | i | 0.98 | 97.6 | -1.4 | nt
O=S(=O)(c1ccc(NC(=S)NN=C(Cc2ccccc2)Cc2ccccc2)cc1)N1CCOCC1 | nt | nt | i | 0.95 | 109.5 | -2.7 | nt
CCC(=O)NNc1ncnc2c1cnn2C | -8.3 | 107.7 | i | 0.96 | 101.7 | -2.0 | nt
O=[N+]([O-])c1ccc(N=Nc2ccc(O)cc2O)cc1 | 31.5 | 97.1 | i | 0.56 | 95.2 | 0.0 | -2.5
C/C(=N/Nc1ncc(C(F)(F)F)cc1Cl)c1ccncc1 | nt | nt | i | 0.97 | 102.4 | -2.9 | nt
COc1ccc(NC(=O)C2CCN(c3nc(C)nc4c3CCC4)CC2)cc1 | nt | nt | i | 0.61 | 101.6 | nt | nt
Cc1cccc2nc(CSc3nncn3-c3ccccc3)cn12 | nt | nt | i | 1.03 | 103.3 | 6.0 | -2.8
COc1cc(/C=C2\N=C(c3ccccc3)NNC2=O)cc(OC)c1OC | nt | nt | i | 0.62 | 97.2 | nt | nt
CCn1cc(C(=O)NCc2cccnc2)c(=O)c2cc(F)c(N3CCN(C(=O)c4ccco4)CC3)cc21 | 34.5 | 84.9 | i | 1.04 | 105.5 | -5.9 | 0.0
COc1ccc(S(=O)(=O)N(C(=O)c2ccncc2)c2ccc(OC(=O)c3ccncc3)cc2)cc1 | nt | nt | i | 0.94 | 99.7 | -5.0 | nt
Cc1cccn2c(=O)c(/C=N/O)c(NCc3ccccc3)nc12 | nt | nt | i | 1.02 | 105.9 | nt | nt
COC(=O)c1sccc1NC(=O)CCC1CCCC1 | 0.0 | 41.3 | i | 0.963 | 97.2 | -6.2 | 0.1
O=C(CN(Cc1ccccc1)S(=O)(=O)c1ccccc1)N1CCOCC1 | -37.8 | 83.0 | i | 0.8 | 97.8 | -5.5 | -0.9
CS(=O)(=O)N(CC(=O)NCc1ccco1)c1cc(C(F)(F)F)ccc1Cl | -9.1 | 84.8 | i | 0.89 | 113.9 | 3.5 | -1.9
Cc1ccc(C2(c3ccc(C)cc3)NC(=O)N(Cc3c(C)noc3C)C2=O)cc1 | nt | nt | i | 1.06 | 95.0 | -7.8 | -1.6
Cc1cc(N2C(=O)C3CC=CCC3C2=O)cc(C)c1Br (configuration not stated) | -33.3 | 30.0 | i | 0.96 | 103.7 | -4.8 | 1.8
O=C(CCN1C(=O)c2ccccc2C1=O)C1=NN[C@@H]2C(=O)N(c3ccc(F)cc3)C(=O)[C@H]12 | -44.8 | 119.0 | i | 1.01 | 102.2 | -4.0 | 0.1
COc1cc(/C(C)=N\NC(=O)CSc2nc3ccccc3n2C)ccc1O | nt | nt | i | 1.05 | 101.2 | nt | nt
NC(=O)Cn1c(=O)n(CCC(=O)NCCSCc2ccccc2)c(=O)c2ccccc21 | -33.3 | 78.0 | i | 1.04 | 101.7 | -3.6 | nt
NC(=O)Cn1cc(C(=O)c2cccs2)c2ccccc21 | 39.1 | 85.8 | i | 0.88 | 97.3 | 9.6 | -2.7
O=S(=O)(c1cccc2ccccc12)N1CCSC1 | nt | nt | i | 0.89 | 97.9 | nt | nt
COc1ccc(CCNS(=O)(=O)c2cccc(F)c2)cc1OC | 13.2 | 165.4 | i | 0.86 | 105.6 | -5.2 | 0.1
Cn1c(=O)c(-c2cc(=O)[nH][nH]2)c(O)c2ccccc21 | 63.2 | 113.0 | i | 1.04 | 100.2 | 17.8 | nt
CCc1cccc(OCCCCNCCOC)c1 | 20.0 | 68.4 | i | 0.88 | 104.4 | -20.7 | -0.2
COC(=O)Oc1nsnc1N1CCOCC1 | -18.2 | 129.6 | i | 0.83 | 78.6 | -11.3 | -1.6
NNC(=O)c1nc[nH]c1C(=O)Nc1ccccn1 | nt | nt | i | 0.91 | 99.8 | -1.5 | nt

One compound at a time, from the list above:
Listed for `CCc1cccc(OCCCCNCCOC)c1` : Insulin prom inh = 20.0; Insulin prom inh cell count = 68.4; HSV replic up = i; HSV replic up primary fold = 0.88; RGS16-Gao = 104.4; PKD1 kinase inh = -20.7; GALR2 ag = -0.2
Listed for `NC(=O)Cn1cc(C(=O)c2cccs2)c2ccccc21` : Insulin prom inh = 39.1; Insulin prom inh cell count = 85.8; HSV replic up = i; HSV replic up primary fold = 0.88; RGS16-Gao = 97.3; PKD1 kinase inh = 9.6; GALR2 ag = -2.7
Listed for `NNC(=O)c1nc[nH]c1C(=O)Nc1ccccn1` : Insulin prom inh = nt; Insulin prom inh cell count = nt; HSV replic up = i; HSV replic up primary fold = 0.91; RGS16-Gao = 99.8; PKD1 kinase inh = -1.5; GALR2 ag = nt

An unsorted share of the library; about 1.3% have a hit in one of these screens.
